MgrA DNA FP = modulators of Staphylococcus aureus MgrA DNA binding; AID 602314; fluorescence polarization; inhibition, %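 (about 10 µg/mL by stock and volumes)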; hit rate 0.13% among 84,000;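 active means above 50% in either of two replicates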;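 further: 0% = protein plus DNA without compound and 100% = DNA alone without protein; higher means less MgrA bound to DNA so lower polarization; one replicate is shown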
Sa helicase inh = blocks Staphylococcus aureus DNA helicase; purified S. aureus helicase, fluorescence unwinding assay; about half of the hits fall short of the stated cut; inhibition, %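 (tested at about 80 µM)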; hit rate 0.05% among 120,000;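 active means both duplicates at 50% or more, or one of them with a favoured structure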;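 further: 0% = mean of negative control wells and 100% = mean of positive control wells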
Active calls of the source: *; · = not tested or not shown. An excerpt (hit frequency here may not be typical).

SMILES	MgrA DNA FP	Sa helicase inh
NS(=O)(=O)c1ccc2nc3c(nc2c1)-c1cccc2cccc-3c12	·	27.0
CCC(Sc1nc2ccccc2o1)C(N)=O (stereo unspecified)	·	15.0
COc1ccc(Cc2nnc(NC(=O)c3cccs3)s2)cc1OC	5.0	-1.0
O=C(CCCn1sc2ccccc2c1=O)NCc1cccnc1	·	16.0
CS(=O)(=O)c1[nH]nc(-c2ccccc2)c1C#N	2.0	·
COc1ccc(N=Cc2ccc(-c3ccc(OC)cc3)o2)cc1	·	18.0
CCCNCC(=O)Nc1ccccc1C	·	-3.0
Cn1cnnc1SCC(=O)NC(=O)c1ccc(C(C)(C)C)cc1	·	6.0
Nc1nc2cc3c(cc2s1)OCO3	·	2.0
O=S(=O)(c1ccc(N2CCOCC2)nc1)N1CCOCC1	·	8.0
CCOc1nc2cccnc2n(C(C)C(=O)N(CC)c2cccc(C)c2)c1=O (stereo unspecified)	·	-6.0
COC(=O)Cc1cc(=O)[nH]c(=S)[nH]1	·	3.0
CCCc1cc(=O)[nH]c(SCC(=O)N(C)Cc2ccccc2)n1	·	12.0
CC(C)(C)N(Cc1ccccc1)C(=O)CSc1nc(N)cc(=O)[nH]1	·	-4.0
O=C1NCC(COc2cccc3ccccc23)O1 (stereo unspecified)	·	8.0
CC(=O)NC(O)C(=O)c1cccs1 (stereo unspecified)	·	-4.0
Cc1csc(NC(=O)c2sc3cc(F)ccc3c2Cl)n1	6.5	-4.0
Cc1ccc(S(=O)(=O)NCCO)cc1-c1nnc2c3ccccc3c(C)nn12	-3.9	4.0
COc1ccc(-c2noc(Nc3cc(OC)ccc3OC)n2)cc1	·	4.0
CCOC(=O)C1=C(N)OC2=C(C(=O)CC(C)(C)C2)C1c1cccc(Cl)c1 (stereo unspecified)	0.1	·
O=C(OCc1cc(=O)oc2cc(O)ccc12)C1CC2CCCC(C1)C2=O (stereo unspecified)	·	-5.0
O=C(O)CC1SC(c2ccc(Oc3ccc(C(F)(F)F)cn3)cc2)=NC1=O (stereo unspecified)	17.9	·
O=C(c1cc(Nc2ccccc2)n[nH]1)N1CCCCC1	·	-13.0
O=C1O/C(=C/C(=O)N2CCOCC2)c2ccccc21	1.2	6.0
COCC(=O)NCc1nn(-c2ccccc2)nc1C	-1.6	·
O=c1c2ccccc2c(/C=N/c2ncn[nH]2)c(O)n1Cc1ccccc1	·	9.0
COc1ccc(-c2noc(N3CCCC(C(=O)N(C)c4cccc(C(F)(F)F)c4)C3)n2)cc1 (stereo unspecified)	·	-23.0
Cc1cc(OC(=O)c2cccs2)n(Cc2ccc(Cl)cc2Cl)n1	·	6.0
CSc1cccc(NS(=O)(=O)c2cc3[nH]c(=O)c(=O)[nH]c3cc2C)c1	-2.3	-2.0
CC(=O)Oc1ccc(-n2c(C)cc(C=C3C(=O)N(C)C(=O)N(C)C3=O)c2C)cc1	3.6	·
CCOc1cc(C)ccc1OCC(=O)O	-10.8	2.0
N#CCN1CCn2c3c(c4cc(C5CCCCC5)ccc42)CCCC31 (stereo unspecified)	·	19.0
COC(=O)c1cc(OC(=O)C23CC4CC(CC(C4)C2)C3)n(C)n1	5.6	7.0
COc1ccc(-n2nc(C(=O)NCc3ccc(C)cc3)c3c4ccccc4n(C)c3c2=O)cc1Cl	0.6	12.0
O=C(Nc1nccs1)C(F)(F)F	·	4.0
O=C(Nc1cc(C(F)(F)F)cc(C(F)(F)F)c1)c1c(F)cccc1F	0.5	·
CSC1=NCCN1S(=O)(=O)c1ccc2ccccc2c1	·	7.0
O=C(Nc1ccccc1)C1(S(=O)(=O)c2ccccc2)CC1	·	4.0
O=C(O)c1ccc(-c2nnco2)cc1	·	-20.0
COC(=O)c1ccc(-n2c(C)cc(-c3csc(N)n3)c2C)cc1	·	-10.0
CN1C(=O)/C(=C\c2ccc3c(c2)OCO3)SC1=S	·	-45.0
Cc1ccc2occ(/C=N/O)c(=O)c2c1	-1.6	·
Nc1ccnc2cc(C(F)(F)F)ccc12	·	7.0
OC(COc1ccc(Br)cc1Br)C[N+]1(Cc2ccccc2)CCOCC1 (stereo unspecified)	-1.7	0.0
C#CCSC1=N/C(=C/N(C)C)C(=O)N1	·	-14.0
CCc1nnc(NC(=O)c2noc3c2COc2ccc(C)cc2-3)s1	1.9	1.0
CC1=N/C(=C\C=C\c2ccccc2)C(=O)O1	-3.2	·
COc1ccc(C(=O)NCC2COc3ccccc3O2)cc1 (stereo unspecified)	-2.5	7.0
O=C1/C(=C\c2ccc(F)cc2)N=C(c2ccccc2)N1Cc1ccc(F)cc1	0.2	·
Cc1cc2ncn(CCOc3ccccc3C)c2cc1C	·	10.0
CSc1nnc(CCNC(=O)C(c2ccccc2)C2CCCC2)n1C (stereo unspecified)	-2.1	11.0
C#CCn1c(=NC(=O)CC)sc2ccccc21	·	1.0
O=C(N/N=C/c1cccc2c1OCCO2)c1ccc(CN2CCOCC2)cc1	0.3	1.0
COCc1cc(=O)[nH]c(-c2ccc(Cl)cc2)n1	·	25.0
O=C1CSC(=S)N1Nc1ccccc1	2.7	12.0
O=C(NCC1CCCO1)C1CCN(CC2CCCCC2)CC1 (stereo unspecified)	-2.8	-9.0
O=C(NCc1ccccc1)C1CCCN(S(=O)(=O)c2ccccc2)C1 (stereo unspecified)	1.3	16.0
CC1C(=O)N2CCCc3cc(S(=O)(=O)N4CCCCC4)cc1c32 (stereo unspecified)	·	-12.0
ON=C1CCN(Cc2ccccc2)CC1	0.4	·
O=C(CN1C(=O)CSc2ccccc21)NC1CCCCCCC1	·	7.0
(further entries)
SMILES	MgrA DNA FP	Sa helicase inh
COc1ccccc1NC(=O)N1CCCN(C(=O)c2cccs2)CC1	-1.4	·
COc1ccc(CCNC(=O)CN2CCC(C)CC2)cc1	·	21.0
CCCCn1c(=N)n(CC(=O)c2ccc(Cl)c(Cl)c2)c2ccccc21	·	-51.0
[O-][n+]1onc2c1CCC1N(O)C(c3ccccc3)CC21O (stereo unspecified)	-1.6	-2.0
CC1=NN(C(=O)c2ccccc2)C(O)(C(C)(C)C)C1 (stereo unspecified)	0.2	4.0
COc1ccc(C2CC(=O)C3=C(C2)NC(C)=C(C(=O)OCC(C)C)C3c2cc(OC)c(OC)c(OC)c2)cc1 (stereo unspecified)	3.9	·
O=C(Nc1ccc(-c2n[nH]c(=S)o2)cc1)c1ccccc1Br	2.2	8.0
O=C1OCCN=C(c2ccccc2)c2ccccc21	-0.7	·
O=C1CNC(=S)N1Cc1cccc(Cl)c1	-1.1	·
CC(C)CNC(=O)c1cccc(NC(=O)c2ccco2)c1	-1.2	5.0
O=C(NCc1ccccc1)c1ccc2c(=O)n(CCC3=CCCCC3)c(=O)[nH]c2c1	1.4	-2.0
CS(=O)(=O)CCC1NC(=O)NC1=O (stereo unspecified)	·	-5.0
Fc1cccc(-n2nnnc2-c2ccc(Cl)c(Cl)c2)c1	-2.3	·
O=C1c2ccccc2-c2oc(=O)c3ccccc3c21	·	-21.0
Cc1cc(C)nc(NC(=S)Nc2ccccc2)n1	·	13.0
S=C(Nc1cccnc1)NC1CCCCCCC1	0.7	2.0
C=CCN(c1ccccc1)S(=O)(=O)c1ccc2c(c1)OC(C)CN2C(C)=O (stereo unspecified)	0.2	10.0
Cc1onc(-c2ccccc2)c1CNC(=O)c1ccco1	-2.4	·
CC(=O)NCCOc1nc(N2CCCCC2)nc(N2CCCCC2)n1	·	10.0
Cc1c(CC(N)C(=O)O)sc2ccccc12 (stereo unspecified)	-1.8	·
COC(=O)C(Sc1nc(C)cc(C)c1C#N)c1ccccc1 (stereo unspecified)	-1.9	8.0
Cn1nc(C2CC2)cc1NC(=O)CC(CC(=O)O)c1ccccc1 (stereo unspecified)	-4.5	·
CCOC(=O)CSc1ncnc2sc3c(c12)CCC3	4.3	9.0
COc1cc(N(C(=O)Cn2nnc3ccccc32)C(C(=O)NCC2CCCO2)c2ccc(F)cc2)ccc1-n1cnnn1 (stereo unspecified)	1.9	-5.0
CC(C)=CC1C(C(=O)NN)C1(C)C (stereo unspecified)	·	4.0
CCn1c(-n2nc(C)cc2NC(=O)c2ccccc2)nc2ccccc21	0.8	20.0
CC1CN(C(=O)COC(=O)c2ccc(S(=O)(=O)N3CCCC3)cc2)CC(C)O1 (stereo unspecified)	·	10.0
O=C(O)C1=C(C(=O)NCc2ccc3c(c2)OCO3)CCCC1	0.1	·
O=C1CC(NCC2CCCCC2)C(=O)N1c1ccccc1 (stereo unspecified)	0.9	4.0
COc1ccc(CNc2nc(N)n(-c3ccccc3)n2)cc1	1.8	17.0
Nn1c(C(=O)N2CCCC2)nc2ccccc2c1=O	5.1	·
Cc1cc(C(=O)CSC(C)c2nc3ccccc3c(=O)[nH]2)c(C)n1C (stereo unspecified)	·	-34.0
O=C(Nc1ccc(OC(F)F)cc1)NC1CCN(C(=O)OCc2ccccc2)CC1	·	-6.0
COc1ccc2c(c1)N(C)/C(=c1/s/c(=C3/C(=O)N(c4ccccc4)N=C3C)n(C)c1=O)S2	5.8	1.0
O=C(CCCC1=NS(=O)(=O)c2ccccc2N1)Nc1ccccc1	0.2	-1.0
COc1ccccc1CNC(=O)C(C)C	-0.8	-2.0
Cc1cccc(NC(=O)c2cccs2)c1C(=O)O	-1.7	·
Cn1c(=O)c2cc(S(=O)(=O)NCCC(=O)NC3CCCC3)ccc2n(C)c1=O	-0.7	3.0
COc1ccc(-c2nn(C)c3sc(C(=O)Nc4cccc(C#N)c4)cc23)cc1OC	·	-20.0
Cc1c(Cl)cccc1NC(=S)Nc1cc2c(c([N+](=O)[O-])c1C)C(C)(C)CC2(C)C	-2.5	·
COC(=O)c1ccc(COC(=O)c2cc3c(s2)CCCCC3)o1	·	-3.0
COc1ccc2oc(C(=O)OCC(=O)Nc3ccc(S(=O)(=O)N4CCOCC4)cc3)c(C)c2c1	·	-2.0
CC(C)(C)OC(=O)N1CCCCC1CN (stereo unspecified)	2.4	14.0
O=C(NCc1ccco1)c1cc2ccccc2oc1=O	0.5	·
Cc1cc(=O)n(CC(=O)O)c2ccccc12	-2.8	-2.0
NC(=S)N/N=C/c1ccccc1O	·	8.0
O=C(Nc1c2c(nn1-c1ccccc1)CSC2)C1CC1	·	7.0
CCCCc1ccc(Nc2nc3cc(Cl)ccc3o2)cc1	·	-3.0
CC1(C)CC(CCN)(c2ccccc2)CCO1 (stereo unspecified)	5.8	5.0
O=C(CC1Sc2ccccc2NC1=O)OCC(=O)N1CCN(S(=O)(=O)c2ccccc2)CC1 (stereo unspecified)	·	10.0
CC(=O)Nc1ccc(Br)cc1C(=O)C(=O)Nc1ccc2c(c1)OCO2	3.2	·
O=c1cc2nn[nH]n2nc1-c1ccccc1	-2.0	·
CNc1nc(C)c(C(C)(C)C)s1	3.0	7.0
O=C(NC(=S)NCc1cccnc1)c1ccc2c(c1)OCO2	3.9	2.0
Cc1ccccc1-c1nnc(SC(C)C(=O)Nc2ccc3c(c2)OCO3)n1C (stereo unspecified)	-2.4	7.0
CC(C)NC(=S)NCc1cccnc1	-1.0	13.0
Cc1nn(-c2ccccc2)c(C)c1CCC(=O)Nc1ccc(S(C)(=O)=O)cc1	·	-4.0
CC(C)(C)c1ccc(S(=O)(=O)N2CCCC2C(N)=O)cc1 (stereo unspecified)	·	12.0
O=C(O)/C(=C/C(=O)c1ccccc1)Nc1ccccc1	-3.4	-4.0
Cc1ccc(C2=NCCNC2=O)c(C)c1	·	-8.0

7 entries picked at random from the list so far, as already listed:
SMILES	MgrA DNA FP	Sa helicase inh
COc1ccc2oc(C(=O)OCC(=O)Nc3ccc(S(=O)(=O)N4CCOCC4)cc3)c(C)c2c1	·	-2.0
CNc1nc(C)c(C(C)(C)C)s1	3.0	7.0
O=C(CC1Sc2ccccc2NC1=O)OCC(=O)N1CCN(S(=O)(=O)c2ccccc2)CC1 (stereo unspecified)	·	10.0
CCCCc1ccc(Nc2nc3cc(Cl)ccc3o2)cc1	·	-3.0
O=c1cc2nn[nH]n2nc1-c1ccccc1	-2.0	·
CC(=O)Nc1ccc(Br)cc1C(=O)C(=O)Nc1ccc2c(c1)OCO2	3.2	·
Cc1nn(-c2ccccc2)c(C)c1CCC(=O)Nc1ccc(S(C)(=O)=O)cc1	·	-4.0

More records follow.
SMILES	MgrA DNA FP	Sa helicase inh
O=C(NCCC1=CCCCC1)C1CCCN(C(=O)c2cnn(-c3ccccc3)c2-n2cccc2)C1 (stereo unspecified)	·	-17.0
CNCc1cn2cc(Cl)ccc2n1	0.9	-25.0
O=C(Nc1c2c(nn1-c1ccc(Cl)cc1)CS(=O)(=O)C2)C1CC1	·	-15.0
C=CCN1C(=O)c2oc3ccccc3c(=O)c2C1c1ccc(O)c(OC)c1 (stereo unspecified)	·	17.0
N=C1CNc2ccccc2C(=O)O1	17.1	3.0
CN(C)C(=O)c1cn(-c2ccccc2)nc1-c1cc2ccccc2o1	·	-20.0
O=C1CSCc2ccccc21	·	-41.0
CC(C(=O)N1CCc2ccccc21)N1CCN(S(=O)(=O)/C=C/c2ccccc2)CC1 (stereo unspecified)	·	2.0
NC(CO)C(=O)N/N=C/c1ccc(O)c(O)c1O (stereo unspecified)	62.4*	8.0
CCOC(=O)N1CCN(CN2C(=S)SC3=NC(=O)CCCN32)CC1	·	20.0
OCC1C2c3ccccc3C(c3ccccc32)C1CO (stereo unspecified)	0.9	·
O=C(Cc1ccccc1)Nc1ccccc1N1CCCC1	·	31.0
CCn1c2ccccc2c2cc(NC(=O)c3cc4cc5cc(OC)ccc5nc4o3)ccc21	·	-22.0

Reformatted: results already given.
COc1ccc(-c2noc(Nc3cc(OC)ccc3OC)n2)cc1
  MgrA DNA FP = ·
  Sa helicase inh = 4.0

CCOC(=O)C1=C(N)OC2=C(C(=O)CC(C)(C)C2)C1c1cccc(Cl)c1 (stereo unspecified)
  MgrA DNA FP = 0.1
  Sa helicase inh = ·

Source: PubChem BioAssay (ICCB-Longwood Screening Facility, Harvard Medical School)
